Screening results from PubChem.
Sa growth inh: S. aureus growth inhibition at 42 and 30 °C, primary screen, LtaS inhibitor project, RN4220, two temperatures. OD600, 20 h, 42 °C; hits give low values. relative growth, % (no concentration beside the values). 0.53% of 170,000 active. AID 720641, 2013;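 active = growth at 42 °C up to 50% and 20 or more points under that at 30 °C, or under 10% at both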;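 note: 300 nL library stock went into each well; scaled to the means of positive and negative controls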
HCMV NEC inh: inhibitors of HCMV UL50-UL53 interaction, biochemical, HTRF; AID 1918969, 2023; normalized percent inhibition; inhibition, % (test concentration not listed); 0.15% of 190,000 active;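 active = both replicates at 50% or more, plus weaker picks with an unusually low signal ratio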;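 note: stock transfer was 100 nL into about 20 µL; 0% = negative control wells and 100% = wells with untagged competitor protein; inactives centre near -12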
GIV Gai3 FP: inhibitors of GIV peptide binding to Galpha-i3, primary screen, biochemical, fluorescence polarization, FITC-GIV GBA peptide, rat Galphai3 | 90 min; hits give low values; scaled: aluminum fluoride 0%, vehicle 100% | percent of control (FP), % (test concentration not listed) | 0.42% of 210,000 active | AID 1224905, 2016;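 active = replicate mean at 85% of control or lower, very high polarization wells dropped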;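 note: wells of about 15 µL received 100 nL stock; the first replicate is given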
Target sequence (P08753 whole entry, looked up): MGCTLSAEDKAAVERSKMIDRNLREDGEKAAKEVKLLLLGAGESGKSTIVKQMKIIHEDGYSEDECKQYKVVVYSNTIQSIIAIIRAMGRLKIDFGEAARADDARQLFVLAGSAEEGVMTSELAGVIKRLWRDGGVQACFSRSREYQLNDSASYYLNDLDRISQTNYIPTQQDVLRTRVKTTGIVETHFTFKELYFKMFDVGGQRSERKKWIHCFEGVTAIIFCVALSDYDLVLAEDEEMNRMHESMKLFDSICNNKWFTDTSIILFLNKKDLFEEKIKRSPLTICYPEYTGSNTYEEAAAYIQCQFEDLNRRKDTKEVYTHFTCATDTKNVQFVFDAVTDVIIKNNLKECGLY
Sa growth inh second temp: second read-out of Sa growth inh, no call of its own (marks repeat the call); relative growth, %; measured here: growth at 30 °C;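 optical density after 20 h as mean of two plates; 100% = untreated growth and lower means inhibition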
The depositor's hits bear a star; . = not tested or not shown; & = joins results of further samples. Compounds were not picked by outcome; any-hit rate near 0.83%.

#1 CCS(=O)(=O)c1ccc2c(c1)N1CCS(=O)(=O)N=C1O2
#2 Cc1ccc(CNC(=O)CCC(=O)N2CC3CCCN3c3ccccc32)cc1 (stereo not given)
#3 O=C(CSc1nc(-c2ccccc2)nc2cc(=O)[nH]n12)Nc1ccccc1
#4 Cc1cccc(NC(=O)Cn2c(=O)n(Cc3ccccc3)c(=O)c3sc4ccccc4c32)c1
#5 C=CCOC(=O)COc1ccc(Oc2ccccc2)cc1

Compound	1	2	3	4	5
Sa growth inh	103	113	111	90	97
Sa growth inh second temp	97	89	69	94	91
HCMV NEC inh	-2	.	.	18	-21
GIV Gai3 FP	.	99	104	104	.

#6 Cc1ccc(NC(=O)Cc2ccc(-n3c(C)nc4cccnc43)cc2)c(Cl)c1
#7 Cc1cccc(NC(=O)C2=CC(=O)C3C=CC=CC3O2)c1C (stereo not given)
#8 COc1ccc(CC(=O)N2CC(C)OC(C)C2)cc1 (stereo not given)
#9 CCOC(=O)c1ccc(N2C(=O)CC3(CCCC3)C2=O)cc1
#10 N=C1/C(=C\c2cn(CCOc3ccccc3Cl)c3ccccc23)C(=O)N=C2SC=NN12

Compound	6	7	8	9	10
Sa growth inh	104	100	103	97	124
Sa growth inh second temp	106	96	110	89	55
HCMV NEC inh	.	-43	-12	.	0
GIV Gai3 FP	122	109	107	100	11*

#11 CCSc1nnc(NC(=O)/C=C/c2ccc3c(c2)OCCO3)s1
#12 CCCn1c(C)cc(/C=C(\C#N)C(=O)Oc2c(C)ccc(C)c2C)c1C
#13 COc1ccc(C(=O)N[C@H](C(=O)N2CCN(S(=O)(=O)c3ccc(Cl)cc3)CC2)C(C)C)cc1
#14 Cc1ccc(-n2ncc(C(=O)N3CCCCC3)c2C2CCN(C(=O)OC(C)(C)C)CC2)cc1C
#15 CN(c1ccc2c(c1)OCO2)S(=O)(=O)c1ccsc1-c1nc(-c2ccncc2)no1

Compound	11	12	13	14	15
Sa growth inh	67	87	98	94	.
Sa growth inh second temp	91	97	96	88	.
HCMV NEC inh	-17	-20	-8	.	-17
GIV Gai3 FP	.	.	.	109	102

#16 O=C(CN1C(=O)C2CC=CCC2C1=O)NC1CCCCC1 (stereo not given)
#17 COC(=O)C1=NNC(C(=O)c2ccco2)C1c1ccc(OC)cc1 (stereo not given)
#18 N#CC1=C(N)C(C#N)(C#N)C(c2cccs2)C2CCCC=C12 (stereo not given)
#19 CCSc1nn(CC(=O)Nc2cc(C)c(Cl)cc2OC)c(N)c1S(=O)(=O)c1ccc(C)cc1
#20 Cc1ccc(CNC(=O)CC(C)CC2=NS(=O)(=O)c3ccccc3N2)cc1 (stereo not given)

Compound	16	17	18	19	20
Sa growth inh	100	99	76	.	85
Sa growth inh second temp	99	77	55	.	87
HCMV NEC inh	-9	.	-46	-26	.
GIV Gai3 FP	101	106	.	104	101

#21 Cc1ccc(OCc2cc(C(N)=O)oc2C)cc1
#22 CC1=CCC(C(=O)O)C(C(=O)O)C1 (stereo not given)
#23 CCN(C(=O)CCS(=O)(=O)c1ccc2c(c1)oc(=O)n2C)c1ccc(OC)cc1
#24 CN(C)CC(=O)C12CC3CC(CC(C3)C1)C2
#25 O=C(CN1C(=O)CSC1=O)NCc1ccccc1

Compound	21	22	23	24	25
Sa growth inh	93	103	89	93	105
Sa growth inh second temp	88	109	92	85	78
HCMV NEC inh	-15	-4	.	-14	-8
GIV Gai3 FP	.	96	102	101	102

#26 Cc1onc(-c2c(Cl)cccc2Cl)c1N
#27 CCCC(=O)N1CCc2cc(OC)c(OC)cc2C1COc1ccccc1OC (stereo not given)
#28 O=C1/C(=C/c2ccccc2)Cc2ccccc21
#29 Cc1cc(C(=O)NCc2csc(-c3cccs3)n2)no1
#30 O=C(C1CCN(S(=O)(=O)c2cnc[nH]2)CC1)N1CCn2c1nc1ccccc12

Compound	26	27	28	29	30
Sa growth inh	33	107	125	107	112
Sa growth inh second temp	16	92	80	100	89
HCMV NEC inh	-36	.	-11	-39	.
GIV Gai3 FP	102	103	102	106	105

#31 CCn1c2ccccc2c2cc(/C=N/n3cnnc3)ccc21
#32 CC1CCN(c2c(N)cccc2Cl)CC1
#33 OC(CNCc1ccc2c(c1)OCO2)COc1ccc(-c2csnn2)cc1 (stereo not given)
#34 BrCCOC12CC3CC(CC(C3)C1)C2
#35 CCc1nn(CC(=O)NCc2ccco2)c(=O)c2cc3c(OC)cccc3n12

Compound	31	32	33	34	35
Sa growth inh	91	105	118	89	95
Sa growth inh second temp	54	97	98	87	86
HCMV NEC inh	-60	-3	18	-10	0
GIV Gai3 FP	.	.	97	.	93

#36 Cc1ccc(Cl)c2sc(NC(=O)CS(=O)(=O)c3ccc(Cl)cc3)nc12
#37 CC(NC(=O)c1c(O)nc2ccccn2c1=O)c1ccccc1 (stereo not given)
#38 CCOC(=O)c1ccccc1NC(=O)C1CCN(c2ncnc3c2nc2n3CCCCC2)CC1
#39 CC1CC(C)CN(C(=O)c2cc3cccnc3n(Cc3ccccc3)c2=O)C1 (stereo not given)
#40 COc1ccc(/C=C/C(=O)Nc2noc3ccccc23)cc1OC

Compound	36	37	38	39	40
Sa growth inh	116	85	75	109	93
Sa growth inh second temp	97	75	90	108	89
HCMV NEC inh	.	-15	.	-2	.
GIV Gai3 FP	100	97	102	111	105

#41 O=c1c[n+]([O-])c2ccccc2n1OCc1ccccc1
#42 Cc1nn2c(C)c(C(=O)NCc3ccco3)cnc2c1-c1ccccc1
#43 CCCc1c(C)nc(N2CCN(c3cccc(OC)c3)CC2)[nH]c1=O
#44 C=CCS(=O)(=O)c1nc2ccccc2s1
#45 CC(=O)Nc1ccc(S(=O)(=O)NCc2cc(C)n(-c3ccc(F)cc3)c2C)cc1

Compound	41	42	43	44	45
Sa growth inh	.	106	.	81	98
Sa growth inh second temp	.	96	.	67	90
HCMV NEC inh	-31	.	-16	-48	-8
GIV Gai3 FP	108	108	103	103	114

#46 Cc1c(C)n(C(=O)CSc2ncccn2)c2ccccc12
#47 COc1ccc(OC)c(NC(=O)C(NS(=O)(=O)c2ccc3c(c2)CCCC(=O)N3)C(C)C)c1 (stereo not given)
#48 c1cncc(CNc2c3c(nc4ccccc24)CCC3)c1
#49 CCOC(=O)c1c(NC(=O)c2ccc(S(=O)(=O)N3CCCC(C)C3)cc2)sc2c1CCN(C(C)C)C2 (stereo not given)
#50 O=C(NC1(C(F)(F)F)NC(=O)N(CCc2ccccc2)C1=O)c1ccccc1Cl (stereo not given)

Compound	46	47	48	49	50
Sa growth inh	80	72	99	108	100
Sa growth inh second temp	88	83	78	85	88
HCMV NEC inh	-19	.	-13	.	0
GIV Gai3 FP	.	100	.	125	99

#51 Cc1nnc2sc(-c3cc4ccccc4o3)nn12
#52 COc1cccc(CCNC(=O)c2cnc3sc(N4CCCC4)nn3c2=O)c1
#53 CCc1c(C)nc2nc(NCc3ccccc3C)[nH]n2c1=O
#54 C=CCN(CC=C)C(=S)Nc1ccc2c(C)cc(=O)oc2c1
#55 Cc1cc2c(c3oc(=O)c4ccccc4c13)CN(Cc1ccc(F)cc1)CO2

Compound	51	52	53	54	55
Sa growth inh	76	94	.	103	97
Sa growth inh second temp	85	96	.	99	87
HCMV NEC inh	-65	-9	-8	-6	-25
GIV Gai3 FP	109	97	100	102	95

Quoted at random: 4 entries already listed, in no set order.
#50 O=C(NC1(C(F)(F)F)NC(=O)N(CCc2ccccc2)C1=O)c1ccccc1Cl (stereo not given)
#4 Cc1cccc(NC(=O)Cn2c(=O)n(Cc3ccccc3)c(=O)c3sc4ccccc4c32)c1
#46 Cc1c(C)n(C(=O)CSc2ncccn2)c2ccccc12
#15 CN(c1ccc2c(c1)OCO2)S(=O)(=O)c1ccsc1-c1nc(-c2ccncc2)no1

Compound	50	4	46	15
Sa growth inh	100	90	80	.
Sa growth inh second temp	88	94	88	.
HCMV NEC inh	0	18	-19	-17
GIV Gai3 FP	99	104	.	102

Returning to the listing, starting four compounds before the break.
#52 COc1cccc(CCNC(=O)c2cnc3sc(N4CCCC4)nn3c2=O)c1
#53 CCc1c(C)nc2nc(NCc3ccccc3C)[nH]n2c1=O
#54 C=CCN(CC=C)C(=S)Nc1ccc2c(C)cc(=O)oc2c1
#55 Cc1cc2c(c3oc(=O)c4ccccc4c13)CN(Cc1ccc(F)cc1)CO2
#56 CCn1c(=O)n(CC)c2cc(N3CCCC3)c(NC(=O)Nc3cc(Cl)c(OC)cc3OC)cc21
#57 O=S(=O)(c1ccc(Cl)s1)N1CCN(C(c2ccccc2)c2ccccc2)CC1
#58 CCCNS(=O)(=O)c1ccc(-c2cc(C(F)(F)F)no2)s1
#59 COC(=O)c1sccc1O
#60 CC1CC(C)CN(S(=O)(=O)c2ccc(C(=O)Nc3nc4ccc(S(N)(=O)=O)cc4s3)cc2)C1 (stereo not given)

Compound	52	53	54	55	56	57	58	59	60
Sa growth inh	94	.	103	97	.	116	92	102	.
Sa growth inh second temp	96	.	99	87	.	92	93	106	.
HCMV NEC inh	-9	-8	-6	-25	-18	-10	-28	-1	-3
GIV Gai3 FP	97	100	102	95	102	103	97	108	107

#61 N=C1CCCN1c1ccccc1O
#62 Cc1ccccc1NS(=O)(=O)c1ccc2[nH]cc(C(=O)N3CCc4ccccc43)c(=O)c2c1
#63 C=CCC1(C#N)C(=S)NC(c2ccccc2)=C(C(=O)OCC)C1c1cccnc1 (stereo not given)
#64 COc1ccc(C(=O)NCC(c2ccc(N(C)C)cc2)N(C)C)c(OC)c1 (stereo not given)
#65 Cc1ccc(C)c(-c2csc(-c3nc(-c4ccc5c(c4)OCO5)cs3)n2)c1

Compound	61	62	63	64	65
Sa growth inh	95	123	96	.	.
Sa growth inh second temp	87	82	86	.	.
HCMV NEC inh	-15	.	-17	-33	-9
GIV Gai3 FP	.	105	.	102	98

#66 Cc1c(CN(C)C)c2c(n1C)C(=O)c1ccc(Br)cc1-2
#67 COC(=O)CCc1c(C)[nH]n(-c2nc(-c3ccc(Cl)cc3)cs2)c1=O
#68 C=CCn1c(=O)c2c(nc(-c3ccc(S(=O)(=O)O)cc3)n2C)n(C)c1=O
#69 COCCCNC(=O)c1ccc2c(c1)NC(=O)C(C(C)C)N2 (stereo not given)
#70 O=C(CCn1[nH]c(=O)c2ccccc2c1=O)NCCO

Compound	66	67	68	69	70
Sa growth inh	87	.	.	91	105
Sa growth inh second temp	73	.	.	89	108
HCMV NEC inh	-82	5	-6	-12	3
GIV Gai3 FP	98	100	108	105	104

Record cards, as listed above. Order of screens: Sa growth inh, Sa growth inh second temp, HCMV NEC inh, GIV Gai3 FP
C=CCn1c(=O)c2c(nc(-c3ccc(S(=O)(=O)O)cc3)n2C)n(C)c1=O reads ., ., -6, 108
O=C(CCn1[nH]c(=O)c2ccccc2c1=O)NCCO reads 105, 108, 3, 104
COCCCNC(=O)c1ccc2c(c1)NC(=O)C(C(C)C)N2 (stereo not given) reads 91, 89, -12, 105

Next part:
#71 O=C(NC(Cc1ccccc1)C(=O)OCc1cnc(-c2ccccc2)o1)c1ccccc1 (stereo not given)
#72 CC(C)n1nccc1N
#73 CCn1c(CNC(=O)c2cccs2)nnc1SCC(=O)NO
#74 Cn1nc(C(=O)Nc2ccccc2)c2c1-c1cc(Cl)ccc1SC2
#75 CCCc1nnc(NC(=O)CN2C(=O)c3ccccc3S2(=O)=O)s1

Compound	71	72	73	74	75
Sa growth inh	85	106	93	.	88
Sa growth inh second temp	67	83	80	.	99
HCMV NEC inh	.	-5	-37	-23	0&-12
GIV Gai3 FP	101	104	103	99	109&97

#76 CCN(CC)c1ccc(C(=O)OCC(=O)Nc2ccc(F)cc2F)cc1
#77 O=C(OCC#Cc1ccc(-c2ccccn2)s1)c1cccs1
#78 Cc1ncc(CO)c2cc(C(=O)Nc3ccc(I)cc3)c(=O)oc12
#79 Cc1ccc(C)c(N2CCN(c3nc4ccccc4c(=O)n3-c3ccc(Cl)cc3)CC2)c1
#80 Cc1ccc2oc(-c3cccc(NC(=O)Cc4ccc(Cl)cc4)c3)nc2c1

Compound	76	77	78	79	80
Sa growth inh	120	110	114	120	106
Sa growth inh second temp	83	96	92	93	89
HCMV NEC inh	-28	7	.	-28	-62
GIV Gai3 FP	.	96	108	100	110

#81 CC(C)c1ccc(NC(=O)C(c2ccccc2)N(C)C)cc1 (stereo not given)
#82 COC(=O)c1ccc(-c2nnco2)cc1
#83 CCCN(CCC)Cc1nnc(-c2cccc(Br)c2)o1
#84 NS(=O)(=O)c1ccc(NC(=O)C2CC2)cc1
#85 CCN(CC)CCN1C(=O)c2cc3occc3n2CC1(C)C(=O)NC1CCCCC1 (stereo not given)
#86 O=C(CN1CCOCC1)N(c1ccccc1)c1ccc2ccccc2c1
#87 Cc1ccc(C)c(C(=O)COC(=O)/C=C/c2ccccc2Cl)c1

Compound	81	82	83	84	85	86	87
Sa growth inh	88	102	89	81	.	111	101
Sa growth inh second temp	86	94	79	92	.	80	94
HCMV NEC inh	-21	1	.	0	-9	-36	-8
GIV Gai3 FP	105	98	104	.	105	103	.

Structures listed so far shown as hits in GIV Gai3 FP:
entry | SMILES | Sa growth inh second temp | GIV Gai3 FP
10 | N=C1/C(=C\c2cn(CCOc3ccccc3Cl)c3ccccc23)C(=O)N=C2SC=NN12 | 55 | 11*
